PKD1 inh = blocks activity of human protein kinase D1; PKD1 kinase fluorescence polarization assay; inhibition, %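 (about 10 µM by stock and volumes)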; 200,000 compounds, 0.056% hits; AID 797;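 active means inhibition of 50% or more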;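 further: controls were vehicle for no effect and a reference inhibitor for full effect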
Target sequence (Q15139 whole entry, looked up): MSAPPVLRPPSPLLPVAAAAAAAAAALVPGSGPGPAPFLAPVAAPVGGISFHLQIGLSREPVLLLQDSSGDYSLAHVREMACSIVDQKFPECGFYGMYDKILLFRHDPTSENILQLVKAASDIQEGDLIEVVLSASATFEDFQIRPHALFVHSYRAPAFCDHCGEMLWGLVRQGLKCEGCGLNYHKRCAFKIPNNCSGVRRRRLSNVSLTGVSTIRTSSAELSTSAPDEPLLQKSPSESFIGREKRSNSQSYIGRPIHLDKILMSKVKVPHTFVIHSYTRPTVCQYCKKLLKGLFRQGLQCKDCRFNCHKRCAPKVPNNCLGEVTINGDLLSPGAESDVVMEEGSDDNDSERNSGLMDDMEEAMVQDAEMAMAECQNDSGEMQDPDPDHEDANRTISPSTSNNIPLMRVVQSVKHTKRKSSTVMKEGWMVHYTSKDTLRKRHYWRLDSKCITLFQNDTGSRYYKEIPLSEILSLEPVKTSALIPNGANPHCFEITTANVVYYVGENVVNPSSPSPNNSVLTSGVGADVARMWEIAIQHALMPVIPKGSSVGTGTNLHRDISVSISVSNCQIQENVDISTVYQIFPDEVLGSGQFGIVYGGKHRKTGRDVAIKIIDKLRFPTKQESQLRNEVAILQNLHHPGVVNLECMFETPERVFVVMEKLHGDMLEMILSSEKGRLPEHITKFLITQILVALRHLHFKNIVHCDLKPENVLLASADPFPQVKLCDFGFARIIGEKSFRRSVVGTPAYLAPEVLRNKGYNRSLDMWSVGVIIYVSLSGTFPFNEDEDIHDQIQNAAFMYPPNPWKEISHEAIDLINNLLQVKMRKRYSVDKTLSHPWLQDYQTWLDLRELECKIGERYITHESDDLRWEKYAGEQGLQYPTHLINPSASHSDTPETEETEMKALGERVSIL
INS promoter inh = TRM-6 insulin promoter activity inhibition; AID 1273; 130,000 compounds, 0.9% hits; inhibition, % at 2 µM; TRM-6 cells (human fetal islet line), insulin promoter-eGFP reporter, imaging; reporter expression induced with tamoxifen;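 active means inhibition above the mean plus 3 SD, with well images judged a real hit on visual review, cut at about 60% in these data, passing the limit was not always enough; inconclusive means inhibition over the cutoff but images rejected on review; inactive means inhibition not above the cutoff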
HSV replic up = increases HSV replication in cells. HSV replication augmentation in cells, fold increase. maximum fold increase. 220,000 compounds, 0.005% hits. AID 1956;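 active means peak rise of 1.5-fold or more in the series; inconclusive means self-fluorescent or not available for retest; tested in PC3 cells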;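 further: first round at 10 µM; read as green reporter fluorescence; hits show the peak of a series up to 25 µM; 1 = signal of infected wells without compound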
RGS16-Gao HTS = modulates binding between human RGS16 and Galphao; O15492+P09471; bead-based flow cytometry RGS16-Galphao binding, fluorescence; actives lie on both sides; binding response (% of control), % at 10 µM; 220,000 compounds, 0.38% hits; AID 1441;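 active means below 25% or above 175%, edge rows of some plates excepted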;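 further: Galphao activated by GDP with aluminum fluoride before binding; 100% = wells without compound and 0% = beads without RGS; some results beyond the cut were filed as inactive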
GALR2 ag = agonists of human galanin receptor 2 (GALR2); O43603; GALR2-expressing cells, agonist activation read-out; activation, %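 (tested at 5 µM)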; 140,000 compounds, 0.48% hits; AID 803;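 active means above mean plus 3 SD of all compounds, about 5% in these data, not always enough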;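 further: 0% = vehicle buffer wells and 100% = reference agonist at full effect; tested in CHO reporter cells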
INS promoter inh cell count = also measured in INS promoter inh; calls as there; normalized cell count, %; measured here: cell count, toxicity; reference of the scale not given here;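 cells exposed to compound for 48 h; stained nuclei by imaging scaled within each plate; lower means fewer cells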
HSV replic up primary fold = second read-out of HSV replic up, no call of its own (marks repeat the call); fold increase; compound at 10 µM; measured here: primary screen fold increase 10 uM; tested in PC3 cells;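 GFP signal in the first replicate; 1 = infected wells without compound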
An asterisk follows results filed as active; i = inactive; ? = inconclusive; . = not tested or not shown.

SMILES	PKD1 inh	INS promoter inh	INS promoter inh cell count	HSV replic up	HSV replic up primary fold	RGS16-Gao HTS	GALR2 ag
Cc1cccc(-c2ncc(CN3CCCC(CO)(Cc4cccc(Cl)c4)C3)cn2)c1 (centres undefined)	9	-167	95	i	1	104	.
CCCn1c(SCC(=O)N2CCCc3ccccc32)nc2c1c(=O)n(C)c(=O)n2C	0	52	143	.	.	.	-2.6
COC(=O)C1=CN(Cc2cccs2)C=C(C(=O)OC)C1c1cccc(O)c1	-1	.	.	i	1	94	.
COc1ccc(Br)c(C(=O)NCCC(C)C)c1	1	-24	48	i	1	103	-0.7
CCOC(=O)N1CCN(C(=O)c2cc3c(-c4ccc(Cl)cc4)nn(C)c3s2)CC1	-7	.	.	i	0.73	101	-3.1
C/C(=N/NC(=O)CN1CCN(S(=O)(=O)c2ccc(C)cc2)CC1)c1cccc(O)c1	.	.	.	i	1.1	94	.
CCOC(=O)c1c(NC(=O)CSc2nc3cc(Cl)ccc3c(=O)n2Cc2ccco2)sc(C(=O)N(C)C)c1C	-2	.	.	i	0.9	98	1.7
CCn1c(C)cc(/C=C2\SC(=O)N(CC(=O)Nc3ccc(C)c(C)c3)C2=O)c1C	2	.	.	i	0.93	-95*	-0.3
O=C(N/N=C/c1ccc(Cl)cc1Cl)Nc1ccccc1	-3	-33	96	i	0.97	98	-2.2
COc1ccc(CCNC2=NCC(C)S2)cc1 (centres undefined)	-2	7	99	i	0.87	95	1.5
Cc1c(C(C)C)c(=O)n(-c2ccc(S(=O)(=O)NC3CC3)cc2)n1C	-2	30	115	i	0.86	117	.
COC(=O)c1c(C(=O)OC)c(-c2cccc(C)c2)n2c1CS(=O)(=O)C2	10	-34	132	i	0.99	102	-1.1
CCOC(=O)c1cnc2c(c(C)nn2CC)c1Cl	4	.	.	i	0.93	99	.
Cc1cc(CSc2nc(C)cc(=O)[nH]2)c2ncccc2c1	-10	-17	96	i	0.89	105	.
COC(=O)n1c(=S)oc2cc(Cl)ccc21	-2	62	108	i	0.96	103	-1.8
O=C(CCc1ccc(S(=O)(=O)N2CCOCC2)cc1)Nc1nc(COc2ccccc2)cs1	0	-37	104	.	.	104	-1.5
N#CCCN(C(=O)Nc1ccccc1)c1ccccc1	-10	39	38	i	1	98	0.4
S=C(Nc1cccc(Cl)c1)NC1CCCCC1	-2	-17	73	i	0.96	120	-0.6
CCOc1ccc(NC(=O)C2CC(C)=C(C)CC2C(=O)O)cc1 (centres undefined)	-2	-14	128	i	0.84	101	-0.5
Cc1cc(C2=NNC(=Nc3ccc(S(=O)(=O)N4CCOCC4)cc3)SC2)c(C)n1CC1CCCO1 (centres undefined)	-1	-67	129	i	0.97	94	.
Cc1cc(C)cc(OCC(=O)NN2Cc3ccccc3C2=N)c1	-4	26	116	i	1.1	105	-1.1
CC1CCC(NC(=O)CC2Oc3ccccc3NC2=O)CC1 (centres undefined)	-9	.	.	i	0.95	105	-2.2
CSc1nc(C)c(CCO)c(=O)[nH]1	-5	.	.	i	0.91	91	.
CCCSc1nc(NCc2ccco2)c2c3c(sc2n1)COC(C)(C)C3	4	-3	66	i	0.85	103	1.6
CCOC(=O)c1ccc(CSC(=N)N)o1	.	.	.	i	0.72	102	.
ClCc1csc(-c2ccccc2Cl)n1	-5	-227	24	i	0.85	108	.
Cc1ccc(NC2=NC(c3ccccc3)n3c(nc(C)cc3=O)N2)cc1 (centres undefined)	-1	.	.	i	0.92	101	-2.7
CC(C)C(C)(C#N)NC(=O)CSc1ncnc2sc(-c3ccccc3)cc12 (centres undefined)	4	22	120	i	0.69	99	-0.9
CCOc1ccc(NC(=O)N(CCN2CCOCC2)Cc2ccc3c(c2)CCCN3CC)cc1	-3	62	105	i	0.98	104	-1.3
COCCn1c(SCC(=O)Nc2nc(C)c(Cl)cc2Cl)nc2ccccc21	1	-64	94	i	0.94	103	-1.8
Cc1ccc(C(=O)Nc2cccc(C(=O)NCc3ccccc3)c2)cc1	-5	-41	138	i	0.76	106	-1.6
Cn1nc(C(=O)N2CCN(S(=O)(=O)/C=C/c3ccccc3)CC2)c2ccccc2c1=O	-1	.	.	i	1.2	101	0.0
Cc1ccc(N(CC(=O)NCc2ccc3c(c2)OCO3)S(C)(=O)=O)cc1	-3	-15	93	i	1.2	107	-1.9
c1ccc(CCNc2ncnc3nc[nH]c23)cc1	-7	-5	125	i	0.93	104	-1.6
CCOC(=O)c1ccc(S(=O)(=O)N2CCC(C(=O)O)CC2)cc1	-3	13	88	i	0.81	113	-1.2
COCCn1c(SCC(=O)c2ccc(F)cc2)nnc1C(C)C	2	.	.	i	0.99	110	-0.1
O=C(Cn1c(=O)c(=O)n(Cc2ccccc2)c2ccc(Cl)cc21)Nc1cccc(F)c1	-5	.	.	i	1	138	-0.8
CCOC(=O)CSc1ccc(S(=O)(=O)N(CC)CC)cc1[N+](=O)[O-]	11	.	.	i	1	97	.
O=C(NCc1cccc(C(F)(F)F)c1)C1CC(c2c(Cl)cccc2Cl)=NO1 (centres undefined)	-1	-22	90	i	0.73	103	1.1
Nc1[nH]n(-c2ccccc2)c(=O)c1N=Nc1ccc2c(c1)OCCO2	3	.	.	i	0.81	100	.
O=C(Nc1cnccc1C(F)(F)F)NC1CCCCC1	.	.	.	i	1	94	.
COc1ccnc(Oc2cc(Cl)cc(Cl)c2)c1C#N	-4	.	.	i	1.1	104	.
OC(CCN1CCCCC1)(c1ccccc1)c1ccccc1	-4	14	135	i	0.86	102	-0.2
COc1ccccc1Nc1nc(N)nc(CSc2nc(C)cc(C)n2)n1	-13	-100	160	i	0.97	101	0.2
O=C(O)[C@H](Cc1ccccc1)N1C(=O)c2ccncc2C1=O	-28	21	42	i	1	105	-1.8
Cc1csc(NC(=O)c2ccccc2C(=O)O)n1	-4	-7	102	i	0.99	106	-0.8
O=C(Cc1sc(-c2ccccc2Cl)nc1-c1ccccc1)Nc1ccccc1	-1	.	.	i	0.95	102	26*
C[C@H](NC(=O)c1ccco1)C(=O)Nc1ccc(S(=O)(=O)N2CCCC2)cc1	-13	4	115	i	0.96	101	-1.3
CN1CCN(S(=O)(=O)c2ccc(NC(=O)C3CCCCC3)cc2)CC1	0	-21	199	i	0.84	99	0.6
O=C(O)c1ccc2c(c1)ncn2C1CCCCC1	-7	36	24	i	0.95	89	-0.4
Cc1ccc2c(c1)C=CC(C#N)N2C(=O)c1ccccc1 (centres undefined)	-5	-72	4	i	0.63	29	0.4
Cc1ccc(S(=O)(=O)Cn2nnnc2CN2CCOCC2)cc1	4	48	97	i	0.88	105	-3.1
N#C/C(=C\c1ccc(Sc2ccc(Cl)cc2)o1)c1nc2ccccc2[nH]1	4	-88	118	?	.	99	0.1
O=C(Cc1ccccc1)NN1C(=O)C2C3C=CC(C3)C2C1=O (centres undefined)	-6	22	120	i	0.85	106	-3.0
CCNc1ccc(C(=O)OCC(=O)N(Cc2ccccc2)C(C)(C)C)cc1[N+](=O)[O-]	-11	.	.	i	1.1	99	-2.3
COc1cc(-c2nnc(SCC3(c4ccc(Br)cc4)OCCO3)o2)cc(OC)c1OC	5	.	.	i	0.88	105	-2.2
CC(C)(C)OC(=O)CC[C@@H](C(=O)N1CCN(C(=O)OC(C)(C)C)CC1)n1cc(C(CO)NC(=O)OC(C)(C)C)nn1 (some centres undefined)	-7	.	.	i	1.1	97	.
Cc1cc(/C=N/Nc2ccc([N+](=O)[O-])cn2)c(C)n1-c1ccccc1	3	-11	64	i	0.78	98	-2.1
Cc1ccc(/C=C(\C#N)C(=O)NC(C)C)o1	3	.	.	i	0.92	97	.
O=C(c1ccccc1)N1CCSC1=S	-4	32	134	i	0.97	95	-3.7
The results go on:
SMILES	PKD1 inh	INS promoter inh	INS promoter inh cell count	HSV replic up	HSV replic up primary fold	RGS16-Gao HTS	GALR2 ag
COc1cc2c(C(=O)NCCN(C)C)cn(CC(C)C)c(=O)c2cc1OC	.	.	.	i	0.94	97	.
N/C(=N\OC(=O)C1CCCCC1)c1cccnc1	10	.	.	i	0.86	93	-2.5
CCCOP(=O)(OCCC)C(Nc1ccc(C(C)C)cc1)c1ccc([N+](=O)[O-])cc1 (centres undefined)	14	14	59	.	.	101	0.1
Cc1c(=O)n(OCc2ccccc2F)c2ccccc2[n+]1[O-]	-10	-62	49	i	0.87	77	-1.7
CCOC(=O)C1CCCN(S(=O)(=O)c2cn(C)c(=O)n(C)c2=O)C1 (centres undefined)	-8	.	.	i	0.98	99	-2.3
O=S(=O)(c1cccc2nonc12)N1CCN(c2cccc(Cl)c2)CC1	-5	-32	76	i	0.92	94	-1.8
Cc1ccc(OCCNS(=O)(=O)c2ccc(N3CCCC3=O)cc2)cc1C	0	9	88	i	0.97	103	-1.7
COc1ccc(Nc2nc(Cl)c(C=O)s2)cc1	3	-427	144	i	1.2	110	.
Cc1n[nH]c(C)c1C(=O)CC1(O)C(=O)N(CCc2ccccc2)c2ccc(Cl)cc21 (centres undefined)	-5	3	59	i	0.98	43	0.4
CC(OC(=O)c1ccc2c(=O)n3c(nc2c1)CCCCC3)C(=O)Nc1ncc(Cl)cc1Cl (centres undefined)	2	-26	115	i	1.1	103	-0.2

Structures shown so far containing four or more nitrogen atoms (18):
SMILES	PKD1 inh	INS promoter inh	INS promoter inh cell count	HSV replic up	HSV replic up primary fold	RGS16-Gao HTS	GALR2 ag
CCCn1c(SCC(=O)N2CCCc3ccccc32)nc2c1c(=O)n(C)c(=O)n2C	0	52	143	.	.	.	-2.6
CCOC(=O)N1CCN(C(=O)c2cc3c(-c4ccc(Cl)cc4)nn(C)c3s2)CC1	-7	.	.	i	0.73	101	-3.1
C/C(=N/NC(=O)CN1CCN(S(=O)(=O)c2ccc(C)cc2)CC1)c1cccc(O)c1	.	.	.	i	1.1	94	.
CCOC(=O)c1c(NC(=O)CSc2nc3cc(Cl)ccc3c(=O)n2Cc2ccco2)sc(C(=O)N(C)C)c1C	-2	.	.	i	0.9	98	1.7
Cc1cc(C2=NNC(=Nc3ccc(S(=O)(=O)N4CCOCC4)cc3)SC2)c(C)n1CC1CCCO1 (centres undefined)	-1	-67	129	i	0.97	94	.
Cc1ccc(NC2=NC(c3ccccc3)n3c(nc(C)cc3=O)N2)cc1 (centres undefined)	-1	.	.	i	0.92	101	-2.7
CC(C)C(C)(C#N)NC(=O)CSc1ncnc2sc(-c3ccccc3)cc12 (centres undefined)	4	22	120	i	0.69	99	-0.9
CCOc1ccc(NC(=O)N(CCN2CCOCC2)Cc2ccc3c(c2)CCCN3CC)cc1	-3	62	105	i	0.98	104	-1.3
COCCn1c(SCC(=O)Nc2nc(C)c(Cl)cc2Cl)nc2ccccc21	1	-64	94	i	0.94	103	-1.8
Cn1nc(C(=O)N2CCN(S(=O)(=O)/C=C/c3ccccc3)CC2)c2ccccc2c1=O	-1	.	.	i	1.2	101	0.0
c1ccc(CCNc2ncnc3nc[nH]c23)cc1	-7	-5	125	i	0.93	104	-1.6
Nc1[nH]n(-c2ccccc2)c(=O)c1N=Nc1ccc2c(c1)OCCO2	3	.	.	i	0.81	100	.
COc1ccccc1Nc1nc(N)nc(CSc2nc(C)cc(C)n2)n1	-13	-100	160	i	0.97	101	0.2
Cc1ccc(S(=O)(=O)Cn2nnnc2CN2CCOCC2)cc1	4	48	97	i	0.88	105	-3.1
CC(C)(C)OC(=O)CC[C@@H](C(=O)N1CCN(C(=O)OC(C)(C)C)CC1)n1cc(C(CO)NC(=O)OC(C)(C)C)nn1 (some centres undefined)	-7	.	.	i	1.1	97	.
Cc1cc(/C=N/Nc2ccc([N+](=O)[O-])cn2)c(C)n1-c1ccccc1	3	-11	64	i	0.78	98	-2.1
O=S(=O)(c1cccc2nonc12)N1CCN(c2cccc(Cl)c2)CC1	-5	-32	76	i	0.92	94	-1.8
CC(OC(=O)c1ccc2c(=O)n3c(nc2c1)CCCCC3)C(=O)Nc1ncc(Cl)cc1Cl (centres undefined)	2	-26	115	i	1.1	103	-0.2

High-throughput results as filed in PubChem BioAssay.

An unsorted share of the library; overall some 1.3% were active at least once.
